Assay outcomes (PubChem)
Vif A3G: inhibitors of Vif binding to APOBEC3G peptide, primary screen, biochemical, TR-FRET, GST-Vif 1-94, biotin-A3G peptide, dose response retest (AID 1117319) | TR-FRET GST-Vif / biotin-A3G peptide binding; higher % means a stronger effect; test concentration not given here; strong numbers were not always called active | one-dose inhibition, %; IC50 in µM for titrated hits | 260,000 tested, 0.57% active;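 active means above the screen mean plus three standard deviations and confirmed in dose response; inconclusive means results disagree or hit not tested in dose response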;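 further: Vif residues 1-94 fused to GST binding biotinylated APOBEC3G peptide 110-148; 0% = full assay without inhibitor and 100% = GST in place of GST-Vif; retest series ran down from 100 µM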
Calb FLC: affects C. albicans growth with fluconazole. growth inhibition, % (concentration not given with the values). 300,000 tested, 0.57% active. C. albicans CaCi-2 (fluconazole-resistant clinical isolate) + fluconazole, Alamar Blue growth, 48 h;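 active means most replicates above 75%; inconclusive means exactly half above 75%; inactive means most below 75%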;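 further: all wells also contain fluconazole at 8 µg/ml as a sub-toxic cotreatment; 0% = median of DMSO wells and 100% = median of geldanamycin control wells; wells of about 8 µL received 7.5 nL stock; the first replicate is given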
LANA-H2A inh: blocks KSHV LANA binding to histone H2A/H2B. 320,000 tested, 0.6% active. inhibition, % (concentration not given with the values). cell-free LANA-H2A/H2B peptide, fluorescence polarization. AID 2629; in the data active means inhibition mostly above about 10%, no sharp cut-off; inactive means mostly below about 6.7%;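 further: stock transfer was 7.5 nL into about 10 µL; 0% = median of vehicle wells and 100% = median of positive control wells; one replicate is shown; the record names a cut of 25% in any replicate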
RanGTP-Imp inh: disruptors of Ran-importin-beta complex formation – biochemical, FRET, CFP-Ran, YFP-importin-beta, homogeneous, primary screen; cell-free CFP-Ran/YFP-importin-beta FRET ratio; inhibition, % (concentration not given with the values); 300,000 tested, 1.1% active;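 active means most replicates above 15%; inconclusive means exactly half above 15%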;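 further: 0% = DMSO wells and 100% = Ran loaded with GDP instead of GTP; wells of about 40 µL received 100 nL stock; the first replicate is given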
Beta2AR agonist: agonists of human beta-2 adrenergic receptor inducing internalization | P07550 | Am2.2-beta2AR cells, FAP receptor internalization, flow cytometry; reference of the scale not given here | response, % (test concentration not listed) | 340,000 tested, 0.43% active | AID 504454;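 active means response above a set limit, near 3 SD of response in nonfluorescent compounds, cut at about 42% in these data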;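 further: stock transfer was 100 nL into about 11 µL; a reference agonist was the positive control; negative values mostly stem from fluorescent compounds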
Target sequence (P07550 whole entry, looked up): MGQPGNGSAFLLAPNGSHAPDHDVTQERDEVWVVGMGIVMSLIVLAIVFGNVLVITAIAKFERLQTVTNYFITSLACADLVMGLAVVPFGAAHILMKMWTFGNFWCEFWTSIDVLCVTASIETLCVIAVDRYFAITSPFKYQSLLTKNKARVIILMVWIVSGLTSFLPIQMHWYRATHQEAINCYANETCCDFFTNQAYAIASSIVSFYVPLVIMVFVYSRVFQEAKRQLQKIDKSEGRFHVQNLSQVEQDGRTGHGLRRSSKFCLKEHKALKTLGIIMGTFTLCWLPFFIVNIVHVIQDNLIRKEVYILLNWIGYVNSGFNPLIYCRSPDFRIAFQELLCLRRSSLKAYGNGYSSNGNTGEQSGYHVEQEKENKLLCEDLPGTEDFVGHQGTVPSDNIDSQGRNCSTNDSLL
HNF4A DNA FP: change in binding of human HNF4 alpha to DNA. P41235. HNF4a-FITC DNA binding, fluorescence polarization, 1 h. activity change, % at 10 µM. 360,000 tested, 0.3% active. AID 1224865; in the data active means activity change above about 30%, passing the limit was not always enough;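 further: controls were the assay level and a saturating level of protein; the project sought stronger binding though the title names inhibitors; some compounds called inactive have numbers as strong as hits; positive values seem to mean higher polarization but the record does not say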
Target sequence (P41235 whole entry, looked up): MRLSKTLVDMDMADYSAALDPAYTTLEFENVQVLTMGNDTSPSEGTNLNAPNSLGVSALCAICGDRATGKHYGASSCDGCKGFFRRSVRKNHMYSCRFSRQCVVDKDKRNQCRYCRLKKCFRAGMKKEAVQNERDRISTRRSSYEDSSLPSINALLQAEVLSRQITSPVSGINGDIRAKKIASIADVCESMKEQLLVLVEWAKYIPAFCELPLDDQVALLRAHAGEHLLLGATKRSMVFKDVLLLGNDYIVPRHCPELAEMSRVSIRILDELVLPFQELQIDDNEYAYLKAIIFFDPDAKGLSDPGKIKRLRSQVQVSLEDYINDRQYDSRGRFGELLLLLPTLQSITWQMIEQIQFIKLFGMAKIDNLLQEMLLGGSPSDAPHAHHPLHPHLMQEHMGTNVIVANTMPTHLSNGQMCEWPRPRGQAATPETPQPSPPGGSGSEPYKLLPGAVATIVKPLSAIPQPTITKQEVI
ALR inh: inhibitors of human sulfhydryl oxidase ALR; 290,000 tested, 3.8% active; inhibition, % (concentration not given with the values); purified ALR, DTT oxidation, H2O2 HRP-luminol luminescence; AID 485317; P55789;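 active means mean and each replicate at 75% or more; inconclusive means only one of the two met; inactive means neither met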;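 further: stock transfer was 7.5 nL into about 7.5 µL; 0% = neutral wells and 100% = wells with inactivated enzyme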
Numbers without * were called inactive; ? = inconclusive; . = no result given.

SMILES	Vif A3G	Calb FLC	LANA-H2A inh	RanGTP-Imp inh	Beta2AR agonist	HNF4A DNA FP	ALR inh
O=C(Nc1ccccc1Cl)c1csc(-c2cccnc2)n1	-12%	31	-0.6	2.0	-18	2.0	0
COc1ccc(-c2nn(-c3ccccc3)cc2C(=O)NC2CC2)cc1	0%	.	1.8	.	-8	4.9	-4
O=C(Nc1ccc(F)cc1)c1cccc2ccccc12	.	-92	4.4	6.1	4	-2.7	-7
COc1ccc(CCNC(=O)c2ccc3c(c2)N(Cc2ccc(C)cc2)CCS3)cc1OC	-8%	7	-2.0	-0.9	5	1.7	-1
CCOc1cc([C@H]2[C@@H]3CCCC[C@]3(O)CCN2CC(=O)NCc2ccco2)ccc1O	3%	-15	1.8	-0.5	3	-3.1	23
CC(C(=O)NCc1ccccc1Cl)n1cc([N+](=O)[O-])cn1 (stereo not given)	.	-15	2.2	4.4	-3	-0.2	-3
CC1CCCCN1C(=O)C(=O)c1cn(CC(=O)N2CCCC2)c2ccccc12 (stereo not given)	6%	-5	-8.8	5.3	-1	2.0	-4
C=C1CCN([C@@H](C)C(=O)NCc2cc(OC)c(OC)c(OC)c2)S(=O)(=O)c2ccccc21	.	-9	-0.3	-0.4	-1	3.0	-5
CC(C)Cc1ccc(C(C)C(=O)Nc2nccs2)cc1 (stereo not given)	-3%	-19	1.2	0.7	-4	0.0	-4
CCCCn1c(NC(=O)C2CCCCC2)nc2ccccc21	14%	3	1.6	2.1	-15	-2.3	0
COc1cccc(N2CCN(C3CCCC(C)C3)CC2)c1 (stereo not given)	0%	-2	2.3	?	4	3.0	9
O=C(O)CC(CC(=O)Nc1ccc(-n2ccc(C(F)(F)F)n2)cc1)c1ccccc1 (stereo not given)	3%	-2	-3.3	-0.2	3	-1.5	-4
COC(=O)c1ccccc1NS(=O)(=O)c1ccc(NC(C)=O)cc1	-4%	-19	5.9	2.5	23	-1.7	-18
O=C(COC(=O)c1ccc(O)cc1O)c1ccc2c(c1)OCO2	?	8	56*	-0.7	4	3.7	3
COCCN(C(=O)CSCc1ccc(C)cc1)c1c(N)n(CC(C)C)c(=O)[nH]c1=O	-9%	.	-1.0	.	-5	-0.7	-12
CCN(CC)CCN(C(=O)Cn1nnc(-c2ccc(C)o2)n1)C(C(=O)NC1CCCC1)c1ccc(F)cc1 (stereo not given)	.	-8	.	2.4	1	2.4	.
CC(/C=C/c1ccco1)=N\NC(=O)c1cc(Cl)ccc1O	?	-2	4.8	4.4	2	-4.8	13
CCN(CC)CCNC1=NCCn2c1cc1cc(OC)ccc12	4%	26	7.9	-3.0	11	3.8	.
COc1ccc(CNC(=O)COC(=O)CCC2CCCCC2)cc1	27%	-6	0.8	-0.7	-5	-0.6	0
COc1ccc(OCCOCCOc2ccc(C)cc2[N+](=O)[O-])cc1	1%	-6	2.7	-1.3	0	-2.8	-22
O=C(O)CCC(=O)NNC(=O)COc1cccc(Cl)c1	.	28	-0.6	1.7	9	-2.0	5
Cn1c(NC(=O)C[n+]2cc(-c3ccc(Cl)cc3)n3c2CCC3)cc(=O)n(C)c1=O	3%	1	-4.4	3.4	-11	0.2	-6
N/N=C(\c1ccccc1)C12CN3CN(CN(C3)C1)C2	.	-12	5.9	.	-7	-1.7	-15
Nc1ccc(CCc2ccccn2)cc1	8%	.	.	.	10	-3.5	.

Reprinted from the results shown (seven entries):
SMILES	Vif A3G	Calb FLC	LANA-H2A inh	RanGTP-Imp inh	Beta2AR agonist	HNF4A DNA FP	ALR inh
O=C(Nc1ccccc1Cl)c1csc(-c2cccnc2)n1	-12%	31	-0.6	2.0	-18	2.0	0
COc1ccc(-c2nn(-c3ccccc3)cc2C(=O)NC2CC2)cc1	0%	.	1.8	.	-8	4.9	-4
O=C(Nc1ccc(F)cc1)c1cccc2ccccc12	.	-92	4.4	6.1	4	-2.7	-7
COc1ccc(CCNC(=O)c2ccc3c(c2)N(Cc2ccc(C)cc2)CCS3)cc1OC	-8%	7	-2.0	-0.9	5	1.7	-1
CCOc1cc([C@H]2[C@@H]3CCCC[C@]3(O)CCN2CC(=O)NCc2ccco2)ccc1O	3%	-15	1.8	-0.5	3	-3.1	23
CC(C(=O)NCc1ccccc1Cl)n1cc([N+](=O)[O-])cn1 (stereo not given)	.	-15	2.2	4.4	-3	-0.2	-3
CC1CCCCN1C(=O)C(=O)c1cn(CC(=O)N2CCCC2)c2ccccc12 (stereo not given)	6%	-5	-8.8	5.3	-1	2.0	-4

The list goes on.
SMILES	Vif A3G	Calb FLC	LANA-H2A inh	RanGTP-Imp inh	Beta2AR agonist	HNF4A DNA FP	ALR inh
CCN(CC(=O)Nc1c(F)cccc1F)C(=O)CCN1C(=O)C2CC=CCC2C1=O (stereo not given)	4%	8	-1.2	1.2	1	1.5	-5
CCCCOc1ccc(CNn2c(C)nc3ccccc3c2=O)cc1	-1%	2	3.5	-2.7	-9	-1.0	.
Cc1ccc(S(=O)(=O)C(NC(=O)c2ccccc2)=C(Cl)Cl)cc1	.	7	1.4	-1.4	-1	1.0	.
O=C(c1ccccc1)N1CCN(Cc2ccc3c(c2)OCO3)CC1	8%	-23	2.8	0.3	14	3.2	.
COc1ccc(S(=O)(=O)N(C)CC(=O)Nc2ccc3c(c2)OCO3)cc1	-2%	-31	-1.3	?	-13	5.0	-3
CON(C)C(=O)C[C@@H]1C[C@H](OC(=O)c2ccc([N+](=O)[O-])cc2)CN1C(=O)OC(C)(C)C	.	.	6.0	.	-13	7.1	-9
Cc1c(NC(=O)c2ccco2)c(=O)n(-c2ccccc2)n1C	.	5	4.4	2.9	-1	4.2	-2
CC12CCC(C/C1=N/O)C2(C)CBr (stereo not given)	-7%	7	1.5	0.8	4	-7.7	-12
CCCCn1c(NC(C)=O)c(C#N)c2nc3ccccc3nc21	0%	?	-0.4	30*	-15	20	15
CSc1ccc(CNc2ccc(Cl)cc2)cc1	31%	-4	2.2	-1.5	10	-1.3	36
Cc1ccc(/C=N\NC(=O)c2cc(OCC(F)(F)F)ccc2OCC(F)(F)F)cc1	?	-1	0.4	-0.6	-5	1.7	0
CCCS(=O)(=O)N1CCN(C(=O)CCC2CCCC2)CC1	-4%	-10	2.4	4.5	-1	-0.1	4
CC(/C=C1\SC(=S)N(CCC(=O)Nc2nc(C)cs2)C1=O)=C\c1ccccc1	-2%	-5	-5.8	-1.9	9	11	-1
CSCC[C@H](NC(=O)Cc1c(C)c2c(cc(C)c3c(C)c(C)oc32)oc1=O)C(=O)O	1%	7	0.5	1.7	2	-0.9	56
COc1ccccc1N=Nc1c(O)[nH]c2ccc(Br)cc12	-3%	2	1.7	-8.2	-29	69	-16
Cc1cc(CNCc2c(C(=O)N(C)Cc3ccccc3)nc3ccccn23)nn1C	1%	-4	1.6	1.5	-4	4.4	-2
CCNc1ccc2c(Cl)cc(=O)oc2c1	6%	7	-0.6	36*	5	-2.7	-6
COc1ccc(S(=O)(=O)NCCOc2ccccc2)cc1-n1cnnn1	12%	0	3.1	6.5	8	1.9	1
COc1ccc(CCN2C(=O)CC(C(C)c3ccccc3)C2=O)cc1OC (stereo not given)	-6%	-7	-5.6	-0.4	-1	3.6	0
CNc1snc(C)c1C(=O)OCC(=O)c1ccc(Cl)cc1	-18%	.	-9.3	.	5	-0.7	-9
O=C(NCCC(=O)N1CCN(c2ccc(F)cc2)CC1)c1ccco1	-13%	.	.	.	-4	3.1	.
O=C(CN1C(=O)c2ccc(Br)cc2C1=O)NCC1CCCO1 (stereo not given)	-4%	7	-2.1	2.0	-2	3.0	4
CCCn1c(NCc2c[nH]c3ccccc23)nc2ccccc21	32%	21	-0.7	2.3	-3	0.1	.
COc1ccc(N=c2cc(-c3ccc(O)cc3)oc3ccccc23)cc1	4%	-32	-4.0	-0.7	7	8.2	-12
O=C1NC(=S)N/C1=C/c1ccc(Oc2ccc(C(F)(F)F)cc2[N+](=O)[O-])c(Cl)c1	.	-5	2.4	-0.7	-1	-1.0	4
COc1cc(CN2CCCCCC2)cc(OC)c1	.	7	1.5	0.9	-2	0.6	3
CCN(Cc1ccccc1)c1ccc(/C=N/NS(=O)(=O)c2cccc([N+](=O)[O-])c2)cc1	10%	-1	4.1	0.4	3	0.6	-2
c1ccc(COCCCn2cc(-c3ccccc3)nn2)cc1	.	-6	-13	1.9	0	5.1	2
COc1ccc(-c2nnn(CC(=O)N3CCN(c4ccc(F)cc4)CC3)n2)cc1	-2%	1	6.0	2.4	-4	-1.9	-1
O=C(NC1CCCCC1c1ccccc1)c1ccccc1 (stereo not given)	-3%	.	.	.	-3	-1.5	.
Fc1cccc(-n2c(-c3ccco3)nc3nc4ccccc4nc32)c1	11%	-3	2.7	-9.4	-18	3.9	2
CCCN1CCC(=O)NC1=S	-4%	.	.	.	3	-4.1	.
O=P(Cc1nnco1)(c1ccccc1)c1ccccc1	6%	.	-2.8	3.5	6	-0.9	-1
CC1CN(C(=O)CCS(=O)(=O)c2ccccc2)CC(C)O1 (stereo not given)	7%	2	-2.7	2.3	13	0.2	-20
O=C(Cc1ccccc1)NCC(=O)N1CCCCC1	9%	35	-0.4	0.0	15	1.7	-6
COc1ccc(C(=O)Nc2nc(CC(=O)NCCc3cccc(OC)c3)cs2)cc1	0%	5	4.2	?	3	-0.7	-7
COc1ccc(NC(=O)Nc2nnc(-c3ccco3)s2)cc1	2%	1	2.2	-1.5	-2	-0.9	-12
O=C(O)c1nc(-c2ccccc2)n(-c2ccccc2)n1	11%	0	4.9	2.4	6	-0.5	.
CCN(Cc1ccccc1)Cc1ccc(OCc2ccccc2)c(OC)c1	.	-4	0.3	-1.9	26	0.7	0
COc1ccc(CNC(=O)CCC(=O)N2CCN(S(=O)(=O)c3cc([N+](=O)[O-])ccc3C)CC2)cc1	-6%	.	.	.	-4	-0.1	.
CCN(CC)S(=O)(=O)c1ccc(-c2nnco2)cc1	26%	-4	-1.4	-3.7	-13	3.9	-13
CC(NCC(O)COCCC12CC3CC(CC(C3)C1)C2)c1ccccc1 (stereo not given)	8%	19	1.4	-1.1	34	-1.0	-26
CN(C)S(=O)(=O)c1cccc(NC(=O)Cn2cc(C(F)(F)F)cc(Cl)c2=O)c1	-6%	-2	-4.1	?	-6	0.2	.
CC(C)COc1ccc(C(=O)OCC(=O)N(C)CC(=O)Nc2ccc(F)cc2)cc1	-1%	.	-1.2	1.1	-4	2.0	-12
Cc1sc2nc(SCC(=O)N3CC(C)OC(C)C3)n(C)c(=O)c2c1C (stereo not given)	19%	1	2.9	?	11	-1.2	14
CC1CCN(C(=O)COC(=O)C2CCN(S(=O)(=O)c3ccc(Cl)c(C(F)(F)F)c3)CC2)CC1	0%	-1	-6.0	-2.8	-5	-1.2	-5
O=C(O)c1ccccc1-c1nc2cc(Cl)ccc2c(=O)n1O	14%	15	0.5	6.8	-3	1.5	0
Cc1cc2ccccn2c1C(=O)c1ccccc1F	.	-10	1.9	3.2	-9	2.9	.
Cc1ccc(Cl)cc1NC(=S)N(Cc1ccccc1)Cc1cccnc1	?	-3	0.4	3.2	0	-7.1	-4
NNC1=N[C@H]2CS(=O)(=O)C[C@H]2S1	4%	-11	2.8	-7.5	-7	-3.6	-15
CCOC(=O)c1oc2cc(O)cc(O)c2c(=O)c1OCc1ccccc1	.	6	0.6	-3.1	-6	0.5	-5
CC(C)[C@H](NC(=O)c1ccccc1)C(=O)OCC(=O)c1c(N)n(C)c(=O)n(C)c1=O	.	.	-1.6	.	2	-0.9	-1
